# Screens: PubChem, National Center for Advancing Translational Sciences (NCATS)
# Resorufin autofl = compound fluoresces in the resorufin spectral region. Compound fluorescence, resorufin region 547/598 nm, buffer; hits give high values. max dye-equivalent concentration, M. actives 0.04% (n = 59,000). AID 588; active = above 10 nM dye equivalent; inconclusive = 1 to 10 nM; inactive = 1 nM or less; a few of its hits are not listed in these tables; also: highest value over a series up to 38 µM
#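 Compounds in 100 mM Tris, pH 8.0, incubated 15 min at room temperature, then fluorescence read at 547 nm excitation/598 nm emission. Signal converted to dye-equivalent concentration via an on-plate six-point resorufin standard curve, per compound concentration.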
# A647 autofl = compound fluoresces in the A647 spectral region; Compound fluorescence, A647 channel (570/671 nm), Tris buffer; max dye-equivalent concentration, M; 59,000 tested, under 10 active; AID 592; active means above 1 µM dye equivalent; inconclusive means 0.1 to 1 µM; inactive means 0.1 µM or less;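 also: values scaled relative to a standard on each plate; highest value over a series up to 38 µM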
#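 Compound fluorescence was measured in 100 mM Tris buffer, pH 8.0, after 15 min at room temperature, using 570 nm excitation and 671 nm emission filters. Signal was normalized to a per-plate Alexa 647 standard curve and expressed as dye-equivalent concentration at each compound concentration.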
# AID923 = qHTS Assay for Allosteric/Competitive Inhibitors of Caspase-1: Spectroscopic Profiling in AFC Spectral Region; compound fluorescence, AFC spectral region (405/520 nm); almost no hit is shown here; Potency, µM (top dose mostly 57.5 µM), inactives show at the highest dose fluorescence increase, usual class: activators; actives 1.1% (n = 75,000); active = well fitted activation curve with a large enough effect; inconclusive = small, poorly fitted or top-dose-only effect;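 also: potency is read from the fitted curve at half-maximal effect; 0% is about no effect; scaled to a free AFC standard on each plate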
#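 Compound autofluorescence profiled at 405 nm ex/520 nm em during kinetic caspase 1 run (50 nM enzyme, 5 uM Ac-WEHD-AFC, HEPES pH 7.5, 10 mM DTT). Titration up to 57 uM; baseline from regression intercept, normalized to AFC standard curve.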
# A488 fluor = compound autofluorescence in A488 spectral region; AID 591; compound autofluorescence, A488 spectral region, dye equivalency; hits give high values; actives 0.1% (n = 59,000); max dye equivalency, M; active = above 10 nM dye equivalent; inconclusive = 1 to 10 nM; inactive = 1 nM or less; about half of its hits are not listed in these tables;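 also: highest value over a series up to 38 µM; compound alone in buffer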
#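 Read-out: relative fluorescence at 480/540 nm, expressed as Alexa 488 dye-equivalent concentration from a six-point A488 standard included per plate. Conditions: 100 mM Tris, pH 8.0; 15 min incubation, room temperature.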
# TSHR ag = activates the human thyroid stimulating hormone receptor; Potency, µM (series often up to 57.1 µM), for inactives: at the top dose activation, hits mostly activators; HEK293-CNG-TSHR cells (CNG channel as cAMP sensor), membrane potential dye, cAMP; P16473; actives 0.48% (n = 73,000); AID 926; active = well fitted activation curve of enough size with the parental cells flat; inconclusive = any curve in the parental cells; inactive = parental cells flat and receptor cells flat or falling; also: potency is read from the fitted curve at half-maximal effect; % of control where 0% means no effect; weak receptor curves with flat parental cells got no call and are not listed
# Target sequence (P16473 whole entry, looked up): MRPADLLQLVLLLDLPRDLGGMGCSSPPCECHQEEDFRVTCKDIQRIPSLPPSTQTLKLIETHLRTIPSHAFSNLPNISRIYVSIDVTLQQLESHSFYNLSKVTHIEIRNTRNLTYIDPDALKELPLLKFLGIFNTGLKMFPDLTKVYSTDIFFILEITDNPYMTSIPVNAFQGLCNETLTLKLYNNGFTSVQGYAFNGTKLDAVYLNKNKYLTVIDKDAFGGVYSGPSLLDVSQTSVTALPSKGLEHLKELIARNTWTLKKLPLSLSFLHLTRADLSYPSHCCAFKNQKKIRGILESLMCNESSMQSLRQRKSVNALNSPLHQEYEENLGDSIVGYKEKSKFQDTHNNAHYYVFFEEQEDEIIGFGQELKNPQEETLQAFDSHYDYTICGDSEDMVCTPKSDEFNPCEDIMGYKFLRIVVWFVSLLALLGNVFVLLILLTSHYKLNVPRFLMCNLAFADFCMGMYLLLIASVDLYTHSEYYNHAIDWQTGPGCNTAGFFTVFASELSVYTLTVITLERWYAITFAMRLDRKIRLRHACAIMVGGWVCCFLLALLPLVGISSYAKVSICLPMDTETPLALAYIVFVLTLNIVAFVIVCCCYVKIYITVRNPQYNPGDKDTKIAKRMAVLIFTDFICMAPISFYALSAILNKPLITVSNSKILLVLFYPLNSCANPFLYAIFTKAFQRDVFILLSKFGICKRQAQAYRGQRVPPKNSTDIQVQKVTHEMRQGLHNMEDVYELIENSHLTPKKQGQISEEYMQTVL
#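 cAMP rise detected as CNG-channel membrane depolarization by fluorescent dye (emission 590 nm), 30 min after compound, following 60 min dye loading containing 100 uM RO 20-1724 at room temperature. Cells: TSHR/CNG HEK 293, with parental CNG HEK 293 as control.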
# Numbers without * were called inactive; i = inactive; ? = inconclusive; . = no result given; & = joins results of further samples; [ ] = another dose, or the depositor's remark. Not all compounds are listed; rates above refer to the full screens.
# Below each compound: Resorufin autofl | A647 autofl | AID923 | A488 fluor | TSHR ag
O=C(NC1CCCCC1)C(c1ccco1)N(Cc1cccs1)C(=O)Cn1nnc2ccccc21 (centres undefined)
→ i | 1e-09 | -4.1% | i | ?
CN1CCN(CCCNC(=O)c2cc3c(-c4ccc(Cl)cc4)nn(C)c3s2)CC1
→ . | . | 0.4% | . | 12%
O=C(COc1ccc(Cl)cc1)NCc1nnc(SCC(=O)N2CCCCC2)o1
→ i | 6.4e-09 | -1.6% | i | 2%[11.4 µM]
Cc1cc(OCc2nc(-c3cccnc3)no2)c(C)cc1Br
→ i | 1e-09 | -0.6% | i | 19%
COc1ccc(S(=O)(=O)N2CCCC(C(=O)Nc3ccc(NC(=O)c4ccccn4)cc3)C2)cc1 (centres undefined)
→ i | 1e-09 | -0.6% | i | -2%
O=C(Cn1cnc2scc(-c3ccccc3)c2c1=O)N1CCOCC1
→ i | 1.2e-08 | -0.1% | i | -5%
COc1ccccc1CC(=O)Nc1ccc(OC)c(OC)c1
→ . | . | -2.7% | . | 2%
CCCc1nc2ccccc2c(=O)n1/N=C/c1ccc(O)cc1
→ i | 2.3e-08 | -0.5% | i | .
CCOc1ccc(NC(=O)CN(c2ccc(OC)cc2)S(C)(=O)=O)cc1
→ . | . | 1.0% | . | 19%
CC(=O)N(Cc1cc(=O)[nH]c2ccccc12)c1ccccc1
→ i | 5e-09 | 3.5% | i | 0%
COc1ccc(OC)c(NC2c3ccccc3C(=O)N2Cc2ccc3c(c2)OCO3)c1 (centres undefined)
→ . | . | -1.2% | . | 23%
COc1ccc(CN/C(C)=C(/C#N)C(N)=O)cc1OC
→ i | 3.8e-08 | -0.2% | i | 13µM*
O=Nc1c(-c2c(O)[nH]c3ccccc23)[nH]c2ccccc12
→ i | 5e-08 | -6.0% | i | ?
Cc1c(C(=O)NCc2ccccc2)oc2ccc(S(=O)(=O)N3CCC4(CC3)OCCO4)cc12
→ i | 3.4e-09 | -0.3% | i | 0%[11.4 µM]
Cc1occc1C(=O)N1CCCc2ccccc21
→ . | . | -1.3% | . | 15%
Cc1cccc(OCCOCCN2CCOCC2)c1C
→ . | . | 0.0% | . | 8%
O=C1CC(c2ccc(Cl)c(Cl)c2)CC(O)=C1C=NCCN1CCNCC1 (centres undefined)
→ . | . | 1.5% | . | 2%
CCOc1cc2[nH]c(=S)n(CCCN3CCOCC3)c(=O)c2cc1OCC
→ i | 3.3e-08 | 1.3% | i | 3%
CC1(C)Cc2c(c(=S)nc(-c3ccccc3)n2CCO)CO1
→ i | 1e-09 | 2.0% | i | -9%
C[C@H](CCC(=O)O)[C@H]1CC[C@]2(C)[C@@H]3C(=O)C[C@H]4C(C)(C)[C@@H](O)CC[C@]4(C)[C@H]3C(=O)C[C@@]12C
→ i | 1e-09 | 0.4%[11.5 µM] | i | -1%[11.4 µM]
COC(=O)CSc1nnc(CNC(=O)Cc2ccccc2)n1-c1ccccc1OC
→ i | 1.8e-08 | -0.2% | i | 0%
CCOc1ccccc1C1CC(=O)NC2=C1C(=O)CCC2 (centres undefined)
→ i | 4.9e-08 | -0.4% | i | 2%
CCc1cccc(NC(=O)CCS(=O)(=O)c2cccc3nonc23)c1
→ i | 2.6e-08 | 0.6% | i | -15%
c1nc(NCCN2CCOCC2)c2sc3nc(N4CCOCC4)c4c(c3c2n1)CCC4
→ i | 7.1e-09 | -1.1% | i | 16%
O=C(O)CCCCCNC(=O)c1ccncc1
→ i | 4e-09 | 0.9% | i | 0%
O=C(C1CCCN(Cc2ccncc2)C1)N1CCc2ccccc2C1 (centres undefined)
→ i | 2.5e-09 | 0.2% | i | 4%
O=C(CN(Cc1ccccc1F)S(=O)(=O)c1ccc(Cl)cc1)NCCCO
→ . | . | 1.7% | . | -5%[11.4 µM]
c1ccc(Cn2ncc3c(NCc4ccco4)ncnc32)cc1
→ i | 1e-09 | 1.3% | i | -3%
COc1cc(/C=C/c2ccccc2)oc(=O)c1
→ . | . | 2.1% | . | 14%
Cc1ccc2c(c1)cc(CN(Cc1ccccc1)C(=O)N(C)C)c1nnnn12
→ i | 3.9e-08 | -1.7% | i | ?

# A run of entries from the list above, as a working copy:
# Below each compound: Resorufin autofl | A647 autofl | AID923 | A488 fluor | TSHR ag
COc1ccc(CN/C(C)=C(/C#N)C(N)=O)cc1OC
→ i | 3.8e-08 | -0.2% | i | 13µM*
O=Nc1c(-c2c(O)[nH]c3ccccc23)[nH]c2ccccc12
→ i | 5e-08 | -6.0% | i | ?

# Next records
# Below each compound: Resorufin autofl | A647 autofl | AID923 | A488 fluor | TSHR ag
Cc1cc(NC(=O)CCC(=O)N(c2ccccc2)C(C(=O)NCC2CCCO2)c2cccnc2)no1 (centres undefined)
→ i | 2.6e-08 | -1.2% | i | -5%
NC(CC(=O)O)c1cccc(OCc2ccccc2)c1 (centres undefined)
→ i | 8.5e-09 | -1.3% | i | 3%[11.4 µM]
CC[C@@]12CCCN3CCc4c(n(c5ccccc45)C(=O)C1)[C@H]32
→ i | 1e-09&2.7e-08&1.7e-08 | 1.5%[11.5 µM] | i | ?
COc1ccc(N)c(OC)c1
→ . | . | 1.5% | . | 0%
CC(CC(=O)O)NCC1COc2ccccc2O1 (centres undefined)
→ i | 1.5e-08 | -1.7% | i | -12%
CCCCN(C(=O)CNC(=O)c1ccco1)C(C(=O)NC1CCCCC1)c1ccc(OC)cc1OC (centres undefined)
→ i | 7.2e-08 | 0.1% | i | ?
C=CCOc1nc(N(C)C)nc(N(C)C)n1
→ i | 1e-09 | -0.5% | i | 11%
CN(C1CCCCC1)S(=O)(=O)c1ccc(-n2cnnn2)cc1
→ i | 1e-09 | 0.5% | i | 17%
CCOC(=O)N1CCN(Cc2nc3c(c(=O)n(C)c(=O)n3C)n2Cc2cccc(C)c2)CC1
→ i | 4e-08 | 3.4% | i | 10%
CCOc1ccc(-n2nc(C(=O)NCCOC)c3ccccc3c2=O)cc1
→ i | 6e-09 | 0.6% | i | 0%
CCN(CC)CCNC(=O)c1c(O)c2cc(OC)c(OC)cc2[nH]c1=O
→ i | 9.1e-09 | -1.7% | i | -7%
COc1ccc(-c2cc3n(n2)CCc2nc4ccccc4n2-3)cc1
→ i | 1e-09 | -0.4% | i | 10%
O=C1CC[C@H](N2C(=O)c3ccccc3C2=O)C(=O)N1
→ i | 2.4e-09&1e-09 | -5.1% | i | ?
O=C(CN1CCCC1)Nc1ccc(Oc2ccc(NC(=O)CN3CCCC3)cc2)cc1
→ i | 1.5e-08 | -0.3% | i | 6%
COc1cc(CO)cc(Br)c1OCc1cccnc1
→ i | 8.6e-09 | 1.1% | i | -10%
CCC(C)N(CCNC(=O)CC1Oc2ccccc2NC1=O)C1CCCCC1 (centres undefined)
→ . | . | 0.9% | . | 28%
Cc1ccc(F)cc1NC(=O)c1cccc2nccnc12
→ i | 1e-09 | 0.6% | i | -4%
C[C@@H]1NC(=O)[C@@H](C)COC(=O)[C@H](C)NC(=O)[C@@H](C)COC1=O
→ . | . | 2.3%[11.5 µM] | . | 3%[11.4 µM]
CCOC(=O)CSc1ccc2nnc(-c3ccncc3)n2n1
→ . | . | 5.6% | . | -5%
COc1cccc(C(=O)Cn2c(Br)nc3c2c(=O)n(C)c(=O)n3C)c1
→ i | 7.1e-09 | 0.5% | i | ?
Cc1cc(C)nc(NC(=O)c2cnc3sccn3c2=O)n1
→ . | . | -0.7% | . | 0%[11.4 µM]
O=c1[nH]c(CN2CCN(Cc3ccc4c(c3)OCO4)CC2)nc2ccccc12
→ i | 2.9e-09 | 1.7% | i | 9%
Cc1ccc(-c2cc(C(=O)Nc3cc(C)ccc3C)[nH]n2)c(O)c1
→ i | 1.1e-09 | -1.9% | i | -1%
CCc1cccc(C)c1NC(=O)c1cc(C)oc1C
→ i | 2.6e-08 | 0.1% | i | 1%
CCCCNC(=O)c1sc(=S)n2c1[nH]c(=O)c1ccccc12
→ i | 1.6e-08 | -0.9% | i | ?
Cc1cc(NC(=O)c2cc3ccccc3o2)cc(C)c1OCC(=O)N1CCOCC1
→ i | 2.3e-08 | 1.0% | i | 9%
COC(=O)C1CC1C(NC(=O)[C@@H]1CCCN1)c1ccccc1 (some centres undefined)
→ . | . | 1.0% | . | 6%
COc1cccc(C(=O)NC2=NCCS2)c1OC
→ i | 1e-09 | -0.4% | i | -5%
O=C(NCC(F)(F)F)Nc1nnc(C(F)(F)F)s1
→ i | 3.4e-08 | . | i | .
O=S(=O)(NCCCCCNS(=O)(=O)c1ccccc1)c1ccccc1
→ i | 5.9e-09 | -2.3% | i | 21%
O=C(c1ccc(Cl)cc1Cl)C1(n2cncn2)Oc2ccccc2C1O (centres undefined)
→ i | 1e-09 | 1.1% | i | .
COC(=O)c1ccc(CSc2nc(-c3ccccc3)cs2)o1
→ i | 5.5e-09 | 1.1% | i | ?
COc1ccc(OC)c(S(=O)(=O)N(C)CC(=O)N2CCN(c3ccc(F)cc3)CC2)c1
→ i | 1e-09 | 0.8% | i | 1%
O=c1c2ccccc2nnn1CSc1nnc2sc3ccccc3n12
→ i | 3.1e-08 | 1.6% | i | -4%
CCn1c(=O)c(C(=O)NCc2ccc(OC)c(OC)c2)c(O)c2ccccc21
→ i | 1.4e-08 | 0.6% | i | ?
NC(=O)N/N=C/c1ccc([N+](=O)[O-])o1
→ . | . | 1.8% | . | -8%
Cc1nnc(SCc2ccc(F)cc2)s1
→ i | 3.2e-08 | -1.5% | i | -5%
Cc1ccccc1CS(=O)(=O)Cc1ccc(C(=O)NCc2ccccn2)o1
→ ? | 3.9e-08 | 1.4% | i | -4%
CCN(C(=O)CSc1nc2nc(C)cc(C)n2n1)c1cccc(C)c1
→ i | 7.9e-09 | 0.0% | i | 7%
CCn1c(SCC(=O)N2CCCc3ccccc32)nnc1-c1ccco1
→ i | 1e-09 | 0.4% | i | 2%
Cc1ccc(S(=O)(=O)C2(C(=O)N3CCCCCC3)CC2)cc1
→ i | 1e-09 | 1.3% | i | 1%
NS(=O)(=O)c1ccc(CCNC(=O)c2cccnc2)cc1
→ i | 2.8e-08 | -0.9% | i | 3%
COC(=O)c1ccc(Cl)c(NC(=O)CSc2ncn[nH]2)c1
→ i | 2.5e-09 | -1.9% | i | 2%
O=S(=O)(Cc1ccccc1)NCc1ccccn1
→ i | 1.9e-08 | -1.9% | i | -2%
NC(N)=N[C@H](CCC(=O)O)C(=O)O
→ i | 5.7e-08 | -1.9% | i | -33%[inhibitor]
COC(=O)C1=C(C(=O)c2ccccc2)C(c2ccc(O)c(OC)c2)n2nnnc2N1 (centres undefined)
→ i | 1e-09 | -1.5% | i | 0%
COC(=O)[C@@]1(Cc2ccc(OC)cc2)[C@H]2c3cc(C(=O)N4CCCC4)n(CCc4ccc(OC)c(Br)c4)c3C[C@H]2CN1C(=O)c1ccccc1
→ . | . | 1.6% | . | ?
O=C(CN1CC(c2ccccc2)CC1=O)Nc1ccc2c(c1)OCO2 (centres undefined)
→ . | . | 4.4% | . | ?
CN(c1ccccc1)S(=O)(=O)c1ccc(C(=O)Nc2nnc(-c3ccc(F)cc3)o2)cc1
→ i | 4.6e-09 | 0.0% | i | 24%
O=C(Cc1c(O)c2ccccc2[nH]c1=O)NC1CCCCCC1
→ i | 4.6e-08 | -0.2% | i | 7%
CC1CCCCN1C(=O)c1cc(-c2ccc(Cl)c(Cl)c2)on1 (centres undefined)
→ i | 1.6e-09 | -0.7% | i | 18%
CCOc1nonc1C(=N)/C(C(C)=O)=C(\C)O
→ . | . | 1.1% | . | -2%
COc1ccc(NC(C)=O)cc1NC(=O)CCn1c(=O)sc2ccccc21
→ i | 3.4e-08 | 2.0% | i | 13%
Cn1c(=O)c2c(nc(N3CCOCC3)n2CCCNC2=NCCC2)n(C)c1=O
→ i | 5.5e-09 | 4.2% | i | 8%
CN1CCN(C(=O)CSc2nc(-c3ccncc3)ccc2C#N)CC1
→ i | 9.8e-08 | . | i | .
